VDR inhibitor = blocks the human vitamin D receptor | P11473 | VDR-SRC2-3 peptide fluorescence polarization, 2 h | Potency, µM, without a hit: max response, negative = inhibition, most hits filed as inhibitors | actives 0.93% (n = 400,000) | AID 504847; active means well fitted inhibition curve with a large enough effect; inconclusive means small, poorly fitted or top-dose-only effect, or another doubt; inactive means no such curve, though single readings can be large or run the other way; further: series mostly up to about 120 µM
Target sequence (P11473 whole entry, looked up): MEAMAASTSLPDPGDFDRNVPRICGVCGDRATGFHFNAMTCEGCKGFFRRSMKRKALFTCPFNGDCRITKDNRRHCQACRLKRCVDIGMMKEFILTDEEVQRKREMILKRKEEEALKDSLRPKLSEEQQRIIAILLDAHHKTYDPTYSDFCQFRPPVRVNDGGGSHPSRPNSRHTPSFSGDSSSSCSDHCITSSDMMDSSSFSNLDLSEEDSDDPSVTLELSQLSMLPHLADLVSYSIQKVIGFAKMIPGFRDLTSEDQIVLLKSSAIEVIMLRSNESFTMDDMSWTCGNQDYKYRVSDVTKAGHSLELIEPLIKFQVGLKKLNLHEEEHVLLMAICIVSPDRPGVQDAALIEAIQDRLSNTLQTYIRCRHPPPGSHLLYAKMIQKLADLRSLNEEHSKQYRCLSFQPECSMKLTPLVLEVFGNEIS
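Reagent solutions, kept cold and dark, are dispensed first; compounds are then pinned in at 23 nl, plates briefly spun, and incubated 2 h at ambient temperature. Inhibition of VDR–SRC2-3 peptide binding is read by fluorescence polarization.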
Starred values were filed as active, the others as inactive; ? = inconclusive; [ ] = remark or other dose. On the % scale 0 is the no-effect control and ±100 the full control effect; potency means the concentration at half of the fitted maximal effect. The list is partial; rates above refer to the full screens.

SMILES	VDR inhibitor
O=C(N/C(=C/c1ccc2c(c1)OCO2)C(=O)N1CCOCC1)c1cccs1	5%
Cc1cc(C)nc(-n2nc(C)cc2NC(=O)c2ccc(S(=O)(=O)N3CCOCC3)cc2)n1	-9%
CNC(=S)N(CCc1c(C)[nH]c2ccccc12)Cc1ccco1	4%
CSc1ccc(CCNC(=O)c2cc3cc(S(=O)(=O)N4CCCCC4)ccc3n2C)cc1	3%
CCOC(=O)c1cc2c(ccn2-c2ccc(F)cc2)n1CC(=O)N1CCN(C(=O)c2ccco2)CC1	-4%
CC[n+]1c(/C=C/c2cc([N+](=O)[O-])ccc2O)ccc2ccccc21	-13%
CC(=O)c1ccc(NC(=S)N2CCCC(C(F)(F)F)C2)cc1 (configuration not stated)	-19%
CCC1SC(=Nc2cccc(C)c2)NC1=O (configuration not stated)	-11%
Cc1cccc(NC(=O)c2cccc(N3CCCS3(=O)=O)c2)c1	12%
O=C(Cn1ncc2c([nH]c3ccccc32)c1=O)Nc1cc(F)ccc1F	14%
CCC1(C)CC2(CCCN(CCC(=O)c3ccccc3)C2)CCO1 (configuration not stated)	2%
O=C(c1cc2cc(Cl)ccc2[nH]1)N1CCc2ccccc2C1	15%
COc1cccc(CCc2nc3ccccc3c(=O)n2N)c1	-28%
Cc1cc(C(=O)COc2ncnc3sccc23)c(C)n1C	5%
COc1ccc(N2CCN(C(=O)CC34CC5CC(CC(C5)C3)C4)CC2)c([N+](=O)[O-])c1	-11%
COc1cccc(NC(=O)CN(C)C(=O)c2ccccc2-c2nc3ccccc3s2)c1	-9%
Cc1cc(=O)n(CC(=O)Nc2cccc([N+](=O)[O-])c2)c(-n2nc(C)cc2C)n1	7%
COc1cc(CC(=O)N/N=C/c2ccc([N+](=O)[O-])cc2)c([N+](=O)[O-])cc1OC	-2%
Cc1ccc(-c2c[n+]3c(n2-c2ccccc2)CCC3)cc1	-24%
CC1CCc2nc3sc4c(c3c(N)c2C1)CCCC4 (configuration not stated)	?
CCN1C(=O)[C@@H]2[C@@H](c3ccc(-c4ccc(C(C)=O)cc4)c(OC)c3)N3CCCC[C@@]3(C(=O)OC)[C@@H]2C1=O	-3%
CN(CCO)c1nc2c(c(=O)n(Cc3ccc(Cl)cc3)c(=O)n2C)n1C	-11%
CN(C)CCNC(=S)Nc1cccc(Cl)c1	6%
Cc1cc(C(=O)N(C)CC(=O)Nc2ccccc2C(F)(F)F)c(C)o1	0%
CCOC(=O)N1CCc2c(sc3c2c(=O)n(-c2ccc(CC)cc2)c(=O)n3CC(=O)c2ccc(F)cc2)C1	-10%
CN(CCc1ccccc1)C(=O)c1cccc(NC(=O)Cc2cccc(NC(=O)C3CCN(C(=O)C4CC4)CC3)c2)c1	-4%
Cc1ccc(C)c(OCCC(=O)N(C)CC(=O)Nc2c(C)cccc2C)c1	5%
CC(=O)N1CCC2(CC1)CCN(C(c1ccccc1)c1ccccc1)CC2	6%
CN1CCN(c2ncc3nc(-c4cc(F)cc(F)c4)c(=O)n(Cc4cccs4)c3n2)CC1	1%
CC(=O)c1ccc(N2CCN(CC(=O)Nc3ccc4c(c3)OCCO4)CC2)cc1	6%
COc1ccccc1NS(=O)(=O)c1cccc(C(=O)NCC(c2cccs2)N2CCOCC2)c1 (configuration not stated)	1%
C=CCOC(=O)C1=C[C@H](C(C)(C)C)[C@@H](CCCO)[C@H](OCC)O1	-27%
N#CC1=C(N)Nc2nc3ccccc3n2C1c1ccc(Cl)cc1 (configuration not stated)	-3%
Cc1cccc(Cn2c(SCc3ccc(C(=O)NCCc4ccccc4)cc3)nc3cccnc32)c1	16%
O=C(NNC(=S)NC1CCCCC1)c1ccccc1O	-22%
COc1ccc2[nH]c3c(c2c1)CCN1C(=O)C(CC(=O)NCCc2ccccn2)C[C@H](C(=O)N2CCOCC2)[C@@]31C (some centres not stated)	-5%
COc1ccc(-c2cn[nH]c2-c2ccc(OCc3ccccc3)cc2O)cc1OC	6%
S=c1[nH]nc(C2CCCCC2)n1/N=C/c1ccccc1Br	-29%
CNC(=O)CSc1nnc(-c2cccs2)o1	17%
CC(=O)CCC(=O)N1CCCC(N2CCN(c3cccc(Cl)c3)CC2)C1 (configuration not stated)	-1%
Cc1cccc(-c2nc3c4ccccc4nc(N4CCN(c5cc(C)ccc5C)CC4)n3n2)c1	-5%
Cc1ccc(OCCN2CCNCC2)c([N+](=O)[O-])c1	-9%
CCCc1nnc(NC(=O)c2cccnc2)s1	-8%
CCN=c1scc(-c2cccs2)n1/N=C/c1cc(OC)ccc1O	-7%
O=C1CCCCC1Oc1ccc2ccc(=O)oc2c1 (configuration not stated)	0%
CC(C)n1nccc1NC(=O)COC(=O)c1ccc(NC(N)=O)cc1	2%
Nc1ccc(N2CCCCC2)c(S(=O)(=O)Nc2ccccc2Cl)c1	-14%
Cc1ccc(C)c(NC(=S)N2CCC(N(C)CC3CCCO3)CC2)c1 (configuration not stated)	0%
O=C1NCCN(Cc2c(F)cccc2Cl)C1CC(=O)N1CCCCO1 (configuration not stated)	-25%
O=C(CN1CCN(Cc2ccc3c(c2)OCO3)CC1)Nc1ccc(F)cc1	9%
COc1ccc(-n2nnnc2-c2ccccc2)cc1	-7%
CCc1ccccc1NC(=S)N1CCN(c2ccccn2)CC1	-1%
COc1ccc(CCNC(=O)c2ccc3c(c2)N(Cc2ccccc2Cl)C(=O)c2ccccc2S3)cc1OC	23%
CCOc1ncccc1C(=O)N=c1sccn1C	5%
COc1cc(OC)nc(-n2ncc(OC)c(Br)c2=O)n1	-19%
CC1=NN(C(=O)c2ccc(Cn3nc(C)c([N+](=O)[O-])c3C)o2)C(O)(C(F)(F)F)C1 (configuration not stated)	-9%
CCCSc1nc2sc3c(c2c(=O)n1-c1ccc(OC)cc1)CCN(C)C3	1%
CCOc1ccccc1NC(=O)C1CCN(S(=O)(=O)Cc2ccccc2)CC1	18%
CS(=O)(=O)c1ccc2nc(NC(=O)Cc3ccccc3)sc2c1	-24%
CCSc1nnc(NC(=O)c2ccc(C)o2)s1	-21%
Other results:
SMILES	VDR inhibitor
O=[N+]([O-])c1cc([N+](=O)[O-])c2cc(-c3cccnc3)[nH]c2c1	0%
COC(=O)c1cc(O)c(OCc2ccccc2)c(O)c1	-7%
CCOC(=O)C1CCCN(S(=O)(=O)c2cc3c4c(c2)CC(=O)N4CCC3)C1 (configuration not stated)	-3%
C[C@H]1CCC[C@@]2(O[C@H](CCO)C[C@H](O)[C@H]2O)O1	-14%
Cc1c(CNC(=O)C2CCC(=O)N(CCc3ccccc3)C2)cnn1C (configuration not stated)	-12%
Cc1ccc2cc(CN(CC3CCCO3)S(=O)(=O)c3cccc4nsnc34)c(=O)[nH]c2c1 (configuration not stated)	5%
CCCCNC(=O)c1ccc2nc(-c3cccs3)c(-c3cccs3)nc2c1	-21%
O=C(c1ccc(F)cc1)N1CCN(C2=NS(=O)(=O)c3ccccc32)CC1	-18%
O=C(COC(=O)CN1C(=O)C2CC=CCC2C1=O)Nc1cc(C(F)(F)F)ccc1N1CCOCC1 (configuration not stated)	-2%
COc1ccc(CNS(=O)(=O)c2ccc3c(c2)CC(C)N3C(=O)C2CC2)cc1 (configuration not stated)	7%
COC(=O)C1=CN(Cc2ccc(OC)c(OC)c2)C=C(C(=O)OC)C1c1cccc(F)c1	2%
COc1ccc(N=c2ssnc2Cl)cc1	?
COc1ccc(-n2ccnc2SCC(=O)Nc2ccccc2)cc1	-14%
CC1CCN(c2nc(-c3ccccc3)c(C#N)c(=O)[nH]2)CC1	-11%
CCOc1ccc(NC(=O)c2c(NCc3sccc3C)sc3c2CCCCC3)cc1	?
CCN(c1ccccc1)S(=O)(=O)c1ccc(C(=O)N2CCCC(C(F)(F)F)C2)cc1 (configuration not stated)	1%
COc1ccc(-c2nc(NC(=O)Cn3cnnn3)sc2C)cc1	-12%
COc1cc(/C=C2/N=C(c3ccccc3F)OC2=O)cc(Cl)c1OS(C)(=O)=O	-4%
CN(C)S(=O)(=O)c1ccc(NC(=O)CCCNC(=O)c2ccc(Cl)cc2)cc1	-14%
Cc1ccc(C)n1-c1nccc(-c2cccs2)n1	-9%
O=S(=O)(c1ccc(Cl)cc1)N1CCC(n2cnc3cc(C(F)(F)F)ccc32)CC1	-7%
COc1ccc(C(=O)NNC(=O)CN(C)S(=O)(=O)c2ccc(Cl)cc2)c(OC)c1OC	-12%
O=C(Cn1cnc2c(cnn2-c2ccccc2)c1=O)N1CCOCC1	-13%
COc1ccc(CCNC(=O)c2cc(-c3ccncc3)nc3ccc(S(=O)(=O)N4CCOCC4)cc23)cc1OC	-15%
O=C(COc1ccc2oc(-c3ccccc3)cc(=O)c2c1)Nc1ccccc1	-1%
COC(=O)CCC(=O)Nc1ccc2oc3c(c2c1)CCCC3	-23%
COc1ccc(OC)c(C(=O)CSc2nc3ncccc3[nH]2)c1	?
COc1ccc(NC(=O)Nc2ccc3nsnc3c2)cc1	10%
O=C(OCC(=O)N1CCN(C(=O)c2ccco2)CC1)c1ccc(Cl)c(Cl)c1	-10%
CCN(CC)CCCNC(=O)c1ccc2c3n(nc2c1)-c1ccc(Cl)cc1CO3	13%
C=CCc1cccc2cc(C(=O)NCc3cccnc3)c(=O)oc12	-4%
O=c1c2c(nc3cc(-c4cccc(Cl)c4)[nH]n13)CCCC2	-17%
Cc1ccc(S(=O)(=O)NCCN2CCOCC2)c(C)c1C	8%
CC(=O)Nc1ccc(NC(=O)C2CCCN(c3ncccn3)C2)cc1 (configuration not stated)	0%
CC1CCN(C(=O)C2COc3ccccc3C2)CC1 (configuration not stated)	14%
Cc1ccc(C)c(NC(=S)NC(C)C(c2cccs2)N2CCOCC2)c1 (configuration not stated)	-25%
COc1cccc(-n2nc(C(N)=O)c(O)cc2=O)c1	2%
COc1ccc(Cn2c(CO)cnc2SCC(=O)NCc2ccco2)cc1	15%
CCCCn1c(N)c(N(CCOC)C(=O)c2cc(-c3ccc(C)cc3)nc3ccccc23)c(=O)[nH]c1=O	5%
Cc1[nH]c(C)c(S(=O)(=O)NCc2ccc(F)cc2)c1C(=O)N1CCCC1	-11%
O=C(Nc1nccs1)c1ccc(S(=O)(=O)c2ccccc2)cc1	-8%
COc1ccc(-c2n[nH]c3c2cnc2ccc(F)cc23)cc1	10%
CC(C)Oc1cccc(C(=O)Nc2ccccc2N2CCOCC2)c1	-5%
CC1(C)Cc2c(sc(NC(=O)c3ccc(S(=O)(=O)N4CCCCCC4)cc3)c2C#N)C(C)(C)N1	3%
COc1ccccc1NC(=O)CSc1nnnn1-c1ccc(F)cc1	8%
Cc1ccc(N=c2sc(C)c(C)n2C)cc1	-8%
Fc1ccc(Cn2c(-c3cccc(Br)c3)nc3ccccc32)cc1	0%
CCOCc1nnc(NC(=O)CCC2CCCCC2)s1	6%
CC1=CC2(O)OCCN(CCO)C2=CC1=O (configuration not stated)	15%
Cc1ccc(C(=O)N[C@@H](C)CN2C3=NC[C@H](C(C)C)N3C[C@H]2Cc2ccc(O)cc2)cc1Br	-28%
CCc1ccc(NC(=O)Cn2c(=O)c3cc(Cl)ccc3n3nncc23)cc1	-14%
CCOC(=O)c1c(NC(=O)c2ccc(S(=O)(=O)N3CCC(C)CC3)cc2)sc2c1CCN(C(C)C)C2	20%
COc1cc(C2C(C(=O)OC(C)C)=C(C)N=C3SCCC(=O)N32)ccc1OCc1ccccc1 (configuration not stated)	0%
CCN1C(=O)C(C(=O)c2ccccc2)SC1=S (configuration not stated)	-27%
CCCCC(=O)N1CC2(C)CN(C(=O)CCCC)CC(C)(C1)C2=O	4%
Cc1cc(C)cc(NS(=O)(=O)c2ccc(F)cc2)c1	-3%
CCN(CC)c1ccc(/C=C/C(=O)C2C(=O)C=C(C)OC2=O)cc1 (configuration not stated)	40%[activator]
CCOc1ccc(C(C)=O)cc1N1C(=O)C2C(C1=O)C1C=CC2C12CC2 (configuration not stated)	-6%
O=C1c2ccccc2C(=O)N1CCCCN(C(=O)c1cc([N+](=O)[O-])cc([N+](=O)[O-])c1)c1ccc(Cl)cc1	-12%
COc1ccc(CCNC(=O)Cc2ccc(OC)c(OC)c2)cc1OC	13%

A draw from above in order of number of heavy atoms, low to high.
SMILES	VDR inhibitor
CCOCc1nnc(NC(=O)CCC2CCCCC2)s1	6%
COc1cc(C2C(C(=O)OC(C)C)=C(C)N=C3SCCC(=O)N32)ccc1OCc1ccccc1 (configuration not stated)	0%
O=C1c2ccccc2C(=O)N1CCCCN(C(=O)c1cc([N+](=O)[O-])cc([N+](=O)[O-])c1)c1ccc(Cl)cc1	-12%

Among those listed so far, 6 contain a CF3 group.
SMILES	VDR inhibitor
CC(=O)c1ccc(NC(=S)N2CCCC(C(F)(F)F)C2)cc1 (configuration not stated)	-19%
Cc1cc(C(=O)N(C)CC(=O)Nc2ccccc2C(F)(F)F)c(C)o1	0%
CC1=NN(C(=O)c2ccc(Cn3nc(C)c([N+](=O)[O-])c3C)o2)C(O)(C(F)(F)F)C1 (configuration not stated)	-9%
O=C(COC(=O)CN1C(=O)C2CC=CCC2C1=O)Nc1cc(C(F)(F)F)ccc1N1CCOCC1 (configuration not stated)	-2%
CCN(c1ccccc1)S(=O)(=O)c1ccc(C(=O)N2CCCC(C(F)(F)F)C2)cc1 (configuration not stated)	1%
O=S(=O)(c1ccc(Cl)cc1)N1CCC(n2cnc3cc(C(F)(F)F)ccc32)CC1	-7%

Following part:
SMILES	VDR inhibitor
COc1ccc(-c2nc3ccccc3o2)cc1NC(=O)COc1c(C)cc(Cl)cc1Cl	-21%
CCOC(=O)c1[nH]c2ccc(Cl)cc2c1NC(=O)/C=C/c1ccc2c(c1)OCO2	-14%
COc1ccc2c(c1)CC(C1(O)C(=O)N(C)c3ccccc31)C2=O (configuration not stated)	9%
C/C=C1\COC(C(=O)NCc2ccccc2)(C(F)(F)F)C=C1C=C(C)C (configuration not stated)	?

Given as comma-separated lines: part of the list above
Compound,VDR inhibitor
COC(=O)CCC(=O)Nc1ccc2oc3c(c2c1)CCCC3,-23%
CCCCC(=O)N1CC2(C)CN(C(=O)CCCC)CC(C)(C1)C2=O,4%
CCCCn1c(N)c(N(CCOC)C(=O)c2cc(-c3ccc(C)cc3)nc3ccccc23)c(=O)[nH]c1=O,5%
COc1ccc(-c2cn[nH]c2-c2ccc(OCc3ccccc3)cc2O)cc1OC,6%
